VDR inhibitor – vitamin D3 receptor (human) inhibition; VDR-SRC2-3 peptide fluorescence polarization, 2 h; AID 504847; Potency, µM, without a hit: max response, negative = inhibition, actives largely listed as inhibitors; 400,000 compounds, 0.93% hits; active means well fitted inhibition curve with a large enough effect; inconclusive means small, poorly fitted or top-dose-only effect, or another doubt; inactive means no such curve, though single readings can be large or run the other way; further: series mostly up to about 120 µM
Target sequence (P11473 whole entry, looked up): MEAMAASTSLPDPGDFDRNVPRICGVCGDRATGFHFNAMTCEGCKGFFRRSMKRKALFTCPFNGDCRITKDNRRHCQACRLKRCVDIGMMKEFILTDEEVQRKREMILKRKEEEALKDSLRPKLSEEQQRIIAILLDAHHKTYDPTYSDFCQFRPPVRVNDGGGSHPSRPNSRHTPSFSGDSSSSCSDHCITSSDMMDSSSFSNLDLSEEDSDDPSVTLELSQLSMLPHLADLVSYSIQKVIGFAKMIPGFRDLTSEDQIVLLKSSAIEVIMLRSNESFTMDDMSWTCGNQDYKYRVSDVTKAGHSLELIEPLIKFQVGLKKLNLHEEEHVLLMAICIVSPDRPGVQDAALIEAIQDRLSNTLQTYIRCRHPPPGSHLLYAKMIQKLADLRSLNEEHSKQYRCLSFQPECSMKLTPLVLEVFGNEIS
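The screen uses fluorescence polarization to detect compounds that interfere with recruitment of the SRC2-3 coactivator peptide to VDR; plates are read after 2 h at room temperature.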
Starred values were filed as active, the others as inactive; & = joins results of further samples. On the % scale 0 is the no-effect control and ±100 the full control effect; potency means the concentration at half of the fitted maximal effect. An excerpt (hit frequency here may not be typical).

How did CCOc1cc(C#N)c(NC(=O)c2ccc(OC)c(S(=O)(=O)N3CCCCC3)c2)cc1OCC do in these assays?
VDR inhibitor: -6%

What do the screens show for `Cc1ccc(C)n1-c1nnc(N2CCC(C(=O)NCc3ccccc3Cl)CC2)s1`?
VDR inhibitor: 28%

Results for Cc1ccc[n+](CC(=O)N2CCCc3ccccc32)c1 ?
VDR inhibitor: -8%

Results for CCC(CC)NC(=O)Nc1ccc(C)cc1 ?
VDR inhibitor: 23%

How did CCCn1c(=O)c(C#N)cn(C2CC2)c1=O do in these assays?
VDR inhibitor: 13%

Results for CCOC(=O)c1cc(S(=O)(=O)NCc2ccc3c(c2)OCO3)cn1C ?
VDR inhibitor: -1%

Results for Cc1nc(Br)c(Br)c(C)c1Br ?
VDR inhibitor: -11%

What do the screens show for `CCCCCc1ccc(-c2cn(CCc3c[nH]c4ccccc34)nn2)cc1`?
VDR inhibitor: -22%

Results for CCOc1ccc(NC(=O)c2ccc(F)c(S(=O)(=O)N3CCN(c4ccccn4)CC3)c2)cc1 ?
VDR inhibitor: -19%

Results for COCCn1c(NCc2ccccc2)nc2c1c(=O)[nH]c(=O)n2C ?
VDR inhibitor: 5%

How did Cc1ccc(C2CCN(C(=O)c3cnn(-c4ccccc4Cl)c3C3CCN(C(=O)OC(C)(C)C)CC3)C2)cc1 (stereo not given) do in these assays?
VDR inhibitor: 15%

What do the screens show for `Cc1ccccc1N(C(=O)c1snc(C(N)=O)c1N)C(C(=O)NC1CCCCC1)c1ccc(O)cc1` (stereo not given)?
VDR inhibitor: 7%

How did C[C@H](O)[C@@]1(O)CC[C@H]2[C@@H]3CC[C@@H]4C[C@H](O)CC[C@]4(C)[C@H]3CC[C@@]21C do in these assays?
VDR inhibitor: -9%

How did CCCCc1ccc(S(=O)(=O)NCCc2ccncc2)cc1 do in these assays?
VDR inhibitor: 8%

How did Cc1cccc(CSCCNC(=O)COc2ccc(Cl)cc2)c1 do in these assays?
VDR inhibitor: 13%

What do the screens show for `CCc1nn(CCCC(=O)NCc2ccco2)c(=O)c2cc3occc3n12`?
VDR inhibitor: 12%

Results for CCCc1cc(C(=O)Nc2ccc(F)cc2F)no1 ?
VDR inhibitor: -15%

How did O=C(O)[C@H](Cc1c[nH]c2ccccc12)Nc1ncccc1[N+](=O)[O-] do in these assays?
VDR inhibitor: -4%

What do the screens show for `Cc1ccc(OCC(=O)N(C)CC(=O)Nc2ccc(Cl)c(C(F)(F)F)c2)c([N+](=O)[O-])n1`?
VDR inhibitor: 23%

What do the screens show for `CSc1cccc(CN2CCN(CCc3ccccc3)C(CCO)C2)c1` (stereo not given)?
VDR inhibitor: -16%

Results for Cc1cccc2cc(C#N)c(N3CCC(O)CC3)nc12 ?
VDR inhibitor: -4%

Results for CC1(C)CC(=O)C2=C(C1)c1c(ccc3ccccc13)NC2c1cc([N+](=O)[O-])cc([N+](=O)[O-])c1O (stereo not given) ?
VDR inhibitor: -6%

How did O=C(CN1CCN(Cc2ccc3c(c2)OCO3)CC1)N1c2ccccc2Sc2ccccc21 do in these assays?
VDR inhibitor: 3%

What do the screens show for `O=C(c1ccccc1CCc1ccccc1)N1CCCC1`?
VDR inhibitor: 0%

How did CC(C)c1cccc(C(C)C)c1OCCCCCN1CCOCC1 do in these assays?
VDR inhibitor: -3%

Results for CC1(C)Cc2c(sc(NC(=O)C(=O)NCCCN3CCOCC3)c2C#N)CO1 ?
VDR inhibitor: -5%

How did O=C(CN1C2CCC1CC(NC(=O)NC1CCCCC1)C2)NC1CC1 (stereo not given) do in these assays?
VDR inhibitor: 8%

Results for Cc1cccc(-n2nc([N+](=O)[O-])c(=NCc3cccnc3)n2O)c1 ?
VDR inhibitor: 13%

How did Cc1nc(SCc2ccccc2)nc2c1CCC2 do in these assays?
VDR inhibitor: 4%

What do the screens show for `CCOc1ccccc1NC(=O)N1CCCN(c2ncccc2C#N)CC1`?
VDR inhibitor: 12%

How did OC(CCN1CCCCC1)(c1ccccc1)C1C[C@@H]2C=C[C@H]1C2 (stereo not given in full) do in these assays?
VDR inhibitor: -24%

What do the screens show for `CCOC(=O)c1c(NC(=O)c2ccc(-n3cnnn3)cc2)sc2c1CCCC2`?
VDR inhibitor: 0%

Results for CC(C)(C)S(=O)(=O)c1cnc(N2CCCCC2)nc1N ?
VDR inhibitor: -4%

How did C=CC[C@@](C(C)=O)(C(=O)OC)C(NC(=O)OC(C)(C)C)c1ccccc1 (stereo not given in full) do in these assays?
VDR inhibitor: -3%

What do the screens show for `O=C(NCc1ccccc1)NC(=O)c1ccncc1`?
VDR inhibitor: 13%

Results for Cc1[nH]c2ccccc2c1SCCN ?
VDR inhibitor: 0%

What do the screens show for `Cc1ccc(NC(=O)CC2Nc3ccccc3NC2=O)cc1Cl` (stereo not given)?
VDR inhibitor: -3%

How did Cc1ccc(NC(=O)CSc2nc(=O)n(Cc3cccnc3)c3c2CCC3)cc1F do in these assays?
VDR inhibitor: 5%

How did CCc1ccc(C(O)(CNCc2ccccc2)c2ccccc2)cc1 (stereo not given) do in these assays?
VDR inhibitor: -2%

Results for COc1ccc(-c2csc(NC(=O)CCN3C(=O)C4CC=CCC4C3=O)n2)cc1OC (stereo not given) ?
VDR inhibitor: 8%

How did CCCCC(=O)Nc1ccc(NC(=S)NC(=O)c2cccs2)cc1OC do in these assays?
VDR inhibitor: -24%

What do the screens show for `CC(C)(C)NC(=O)CSc1nnc(C2CC2)n1Cc1ccccc1`?
VDR inhibitor: 5%

What do the screens show for `O=C1OC2CCC1(c1ccccc1)C2` (stereo not given)?
VDR inhibitor: -14%

How did Cn1c(Cn2c(=O)sc3ccccc32)nnc1SCc1ccccc1F do in these assays?
VDR inhibitor: inconclusive

What do the screens show for `c1ccc(-c2nc(N3CCCCCC3)nc(-n3ccnc3)n2)cc1`?
VDR inhibitor: -2%

Results for COc1ccc(S(=O)(=O)n2c([N+](=O)[O-])cnc2C)cc1OC ?
VDR inhibitor: -3%

What do the screens show for `CCCC1COC(Cn2cncn2)(c2ccc(C)cc2)O1` (stereo not given)?
VDR inhibitor: 7%

Results for CC(C)n1c(SC2C(=O)CC(C)(C)CC2=O)nc2c1c(=O)n(C)c(=O)n2C ?
VDR inhibitor: 6%

Results for COc1ccc(N(CC(=O)N2CCN(c3ccc(F)cc3)CC2)S(=O)(=O)c2c(C)noc2C)cc1 ?
VDR inhibitor: 14%&-13%

How did O=C(CSCc1ccc(Cl)cc1)N1CCN(Cc2ccc3c(c2)OCO3)CC1 do in these assays?
VDR inhibitor: -6%

Results for O=C(Cc1ccccn1)c1ccc(O)cc1O ?
VDR inhibitor: -18%

What do the screens show for `CCn1nnc(-c2ccccc2NC(=O)c2cccc(-n3cnnn3)c2)n1`?
VDR inhibitor: 4%

Results for CCOC(=O)CCNC(C(=O)OCC)c1ccccc1 (stereo not given) ?
VDR inhibitor: -12%

Results for CCn1cc(C(=O)NCc2ccc3c(c2)OCO3)c(=O)c2cc(F)c(N3CCN(C)CC3)cc21 ?
VDR inhibitor: 12%

Results for CC(=O)c1c(C)n(-c2ccc(Cl)cc2)c2ccc(O)cc12 ?
VDR inhibitor: -5%

How did COc1cc(NC(=O)C(=O)NCCN(C)C)c(OC)cc1Cl do in these assays?
VDR inhibitor: 20%

Results for Cc1ccc(S(=O)(=O)N(CC(=O)N2CCCCCC2)c2ccccc2F)cc1 ?
VDR inhibitor: -13%

How did COc1ccc(NC(=O)Cc2ccc(C)cc2)c([N+](=O)[O-])c1 do in these assays?
VDR inhibitor: -13%

Results for CCN(CC)S(=O)(=O)c1ccc(Cl)c(C(=O)NCCN2CCOCC2)c1 ?
VDR inhibitor: 12%

How did O=C1CSC(c2cccc([N+](=O)[O-])c2)N1c1c(F)cccc1F (stereo not given) do in these assays?
VDR inhibitor: -24%

Structures above that have an aryl thioether with sulfur outside any ring (7):
What do the screens show for `CSc1cccc(CN2CCN(CCc3ccccc3)C(CCO)C2)c1` (stereo not given)?
VDR inhibitor: -16%

How did Cc1nc(SCc2ccccc2)nc2c1CCC2 do in these assays?
VDR inhibitor: 4%

Results for Cc1[nH]c2ccccc2c1SCCN ?
VDR inhibitor: 0%

How did Cc1ccc(NC(=O)CSc2nc(=O)n(Cc3cccnc3)c3c2CCC3)cc1F do in these assays?
VDR inhibitor: 5%

What do the screens show for `CC(C)(C)NC(=O)CSc1nnc(C2CC2)n1Cc1ccccc1`?
VDR inhibitor: 5%

How did Cn1c(Cn2c(=O)sc3ccccc32)nnc1SCc1ccccc1F do in these assays?
VDR inhibitor: inconclusive

Results for CC(C)n1c(SC2C(=O)CC(C)(C)CC2=O)nc2c1c(=O)n(C)c(=O)n2C ?
VDR inhibitor: 6%

Arranged by heavy-atom count (rising): part of the list above
Results for CCOC(=O)CCNC(C(=O)OCC)c1ccccc1 (stereo not given) ?
VDR inhibitor: -12%

How did COc1ccc(NC(=O)Cc2ccc(C)cc2)c([N+](=O)[O-])c1 do in these assays?
VDR inhibitor: -13%

What do the screens show for `CC(C)(C)NC(=O)CSc1nnc(C2CC2)n1Cc1ccccc1`?
VDR inhibitor: 5%

Results for CCN(CC)S(=O)(=O)c1ccc(Cl)c(C(=O)NCCN2CCOCC2)c1 ?
VDR inhibitor: 12%

How did Cc1ccc(NC(=O)CSc2nc(=O)n(Cc3cccnc3)c3c2CCC3)cc1F do in these assays?
VDR inhibitor: 5%

Results for CC1(C)CC(=O)C2=C(C1)c1c(ccc3ccccc13)NC2c1cc([N+](=O)[O-])cc([N+](=O)[O-])c1O (stereo not given) ?
VDR inhibitor: -6%

Remaining list, next part:
What do the screens show for `CC(C)CCn1nnnc1C(c1ccccc1)N1CCN(C)CC1` (stereo not given)?
VDR inhibitor: -6%

What do the screens show for `CCOC(=O)c1cc(-c2ccccc2)n(CC(=O)NC(C)c2ccccc2)c1C` (stereo not given)?
VDR inhibitor: -6%

Results for O=C(c1ccccc1[N+](=O)[O-])N1N=C(c2ccccc2)CC1(O)C(F)(F)F (stereo not given) ?
VDR inhibitor: 17%

Results for Cc1cc(NC(=O)COC(=O)C2CCC(=O)N2)c([N+](=O)[O-])cc1C (stereo not given) ?
VDR inhibitor: -22%

What do the screens show for `O=c1c2ccccc2nnn1CSc1nnc(-c2cccs2)n1Cc1ccccc1`?
VDR inhibitor: -18%

What do the screens show for `CC1CCN(CCCNC(=O)c2ccc3c(=O)n(CCc4ccccc4)c(=O)[nH]c3c2)CC1`?
VDR inhibitor: -7%

How did Cc1ccc(C(=O)NCC(=O)N/N=C/c2cccs2)cc1C do in these assays?
VDR inhibitor: 7%

Results for C=CCN(C(=O)C1=NN(C2CCS(=O)(=O)C2)C(=O)CC1)c1nc(-c2ccc([N+](=O)[O-])cc2)cs1 (stereo not given) ?
VDR inhibitor: inconclusive

Results for Cc1cc(C)n2nc(C)c(-c3ccccc3)c2n1 ?
VDR inhibitor: 10%

How did N#CC(C#N)=C1C=CC=CN1/C(=C\c1ccco1)C(=O)c1ccc(Cl)cc1 do in these assays?
VDR inhibitor: 8.9µM*

What do the screens show for `O=C(Nc1nc2ccccc2[nH]1)C1CCC1`?
VDR inhibitor: -2%

What do the screens show for `COc1ccc(C(=O)N=C2SC3CS(=O)(=O)CC3N2Cc2ccc(OC)c(OC)c2)cc1` (stereo not given)?
VDR inhibitor: -16%

Results for COc1cccc(/C=C2\SC(=S)N(CCCC(=O)Nc3cc(C)on3)C2=O)c1 ?
VDR inhibitor: -9%

Results for CCOC(CNc1c([N+](=O)[O-])c(=O)n(C)c(=O)n1C)OCC ?
VDR inhibitor: -8%

How did Cn1c(C(=O)NCCCN2CCN(c3ccc(F)cc3)CC2)cc2c(=O)n(C)c3ccccc3c21 do in these assays?
VDR inhibitor: -5%

How did CCOC(=O)C1=C(c2ccccc2)NC(=S)NC1c1ccc(Cl)cc1 (stereo not given) do in these assays?
VDR inhibitor: -15%

Results for C(=C1c2ccccc2-c2ccccc21)c1ccccn1 ?
VDR inhibitor: -18%

Results for C=CCNc1nc(Nc2ccc([N+](=O)[O-])cc2)nc(OCC)n1 ?
VDR inhibitor: -9%

How did CCN(CC)Cc1nc2c(c(=O)[nH]1)C1(CCCC1)Cc1ccccc1-2 do in these assays?
VDR inhibitor: -9%

How did CCCS(=O)(=O)c1csc(C(=O)OC)c1N do in these assays?
VDR inhibitor: -3%

What do the screens show for `Cc1ccc(C)c(OCCC(=O)OCC(=O)Nc2ccc(Cl)cn2)c1`?
VDR inhibitor: -10%

How did Cc1ccc(S(=O)(=O)NC(=O)c2cc(C)n(-c3ccc(N(C)C)cc3)c2C)cc1 do in these assays?
VDR inhibitor: inconclusive

What do the screens show for `O=C(NNS(=O)(=O)c1ccc(F)cc1)c1cc(Cl)ccc1O`?
VDR inhibitor: -4%

What do the screens show for `O=C(O)C1=C[C@H](c2coc3ccccc3c2=O)C[C@H](OCCCCO)O1`?
VDR inhibitor: -12%

What do the screens show for `COc1ccc(CCNC(=O)CCc2cn(C)c3ccccc23)c(OC)c1OC`?
VDR inhibitor: -9%

What do the screens show for `COc1ccc(NC(=O)NCc2cccnc2)cc1`?
VDR inhibitor: 19%

Results for CCCc1nc2c(nnn2Cc2ccccc2F)c(=O)[nH]1 ?
VDR inhibitor: -20%

How did O=C(NCCN1CCN(C(=O)c2ccc(F)cc2)CC1)C(=O)NCc1ccccc1 do in these assays?
VDR inhibitor: -7%

What do the screens show for `CCNC(=S)Nc1ccc(OCC)cc1`?
VDR inhibitor: -11%

What do the screens show for `COc1cccc(-n2nnc3c(=O)n(Cc4ccc(C)cc4)cnc32)c1`?
VDR inhibitor: -6%

What do the screens show for `COc1c(S(=O)(=O)N2CCCCC2)ccc2c(S(=O)(=O)N3CCCCC3)cccc12`?
VDR inhibitor: -2%
